Screening results from PubChem.
TRPV1 potentiator: HTS Assay for Compounds that Act as Potentiators of the Vanilloid Receptor 1; TRPV1-expressing cells, Fluo-8 calcium influx, capsaicin EC20 potentiation; host cell line not named in the record; control for the full effect not named in the record; potentiation, % at 8.33 µM; 320,000 compounds, 0.02% hits; active means potentiation above 80%; inconclusive means 30% to 80%; inactive means below 30%; further: 0% is about no effect
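Fluo-8 calcium influx in TRPV1-expressing cells, kinetic read (ex 480/em 520 nm). Compound added and read 3 min for agonist activity, followed by capsaicin at EC20 final and 2 min further read for enhancement.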
D2 potentiator: Beta-Arrestin HTS for Positive Allosteric Modulators of the Human D2 Dopamine Receptor: Potentiators. DiscoveRx D2 beta-arrestin cells, luminescence, 90 min; 100% = 57 uM dopamine signal. 360,000 compounds, 0.23% hits. D(2) dopamine receptor (Homo sapiens), P14416. potentiation, % (test concentration not listed). AID 624464, 2012; active = potentiation of 50% or more; inconclusive = 30% to 50%; inactive = 30% or less;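 further: compound concentration not given in the record; tested on top of an EC20 dose of dopamine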
Target sequence (P14416 whole entry, looked up): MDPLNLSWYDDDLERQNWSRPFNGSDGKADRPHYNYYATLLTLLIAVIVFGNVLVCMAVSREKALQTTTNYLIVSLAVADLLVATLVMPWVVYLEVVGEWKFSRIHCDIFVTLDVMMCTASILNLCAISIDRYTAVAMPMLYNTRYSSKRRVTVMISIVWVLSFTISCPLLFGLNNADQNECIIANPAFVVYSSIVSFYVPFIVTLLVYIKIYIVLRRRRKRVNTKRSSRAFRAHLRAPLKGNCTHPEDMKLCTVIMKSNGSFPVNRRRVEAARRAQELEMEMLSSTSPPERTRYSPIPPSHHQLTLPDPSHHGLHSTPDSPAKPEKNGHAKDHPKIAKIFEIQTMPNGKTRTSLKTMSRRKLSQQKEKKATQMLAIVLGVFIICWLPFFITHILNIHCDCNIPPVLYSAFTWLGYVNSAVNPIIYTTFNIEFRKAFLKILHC
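D2 cells co-treated with compound plus 50 nM dopamine (EC20) for 90 min at 37 deg C to detect potentiation. Beta-arrestin recruitment was read as enzyme-fragment luminescence after 1 h at ambient temperature. Full response was set by 57 uM dopamine.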
CtBP-E1A inh: qHTS Assay for Inhibitors of the CtBP/E1A Interaction; AlphaScreen GST-E1A/His-CtBP binding, 1536-well; hits give low values; control for the full effect not named in the record; AID 651724, 2012; CtBP / adenovirus E1A interaction (AlphaScreen); 340,000 compounds, 0.49% hits; activity change, % (concentration not given with the values); in the data active means activity change below about -65%; inconclusive means about -30% to -65%; inactive means above about -30%; further: on the % scale 0 is the no-effect control and ±100 the full control effect
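AlphaScreen with 125 nM GST-E1A and 125 nM His-CtBP (5X stocks) in Tris pH 8.0, 300 mM NaCl, BSA, Tween 20, TCEP. Compounds preincubated 2 h at 37 deg C, then glutathione donor/nickel acceptor beads added for 1 h at 37 deg C in dark.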
Six1-Eya2 inh: qHTS Assay for Inhibitors of the Six1/Eya2 Interaction | Homeobox protein SIX1 (Homo sapiens) + Protein phosphatase EYA2 (Homo sapiens), … | AlphaScreen GST-Six1/His-Eya2 binding, biochemical; hits give low values; control for the full effect not named in the record | activity change, % (concentration not given with the values) | 360,000 compounds, 0.56% hits | AID 651725, 2012; in the data active = activity change below about -65%; inconclusive = about -30% to -65%; inactive = above about -30%; further: on the % scale 0 is the no-effect control and ±100 the full control effect
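Homogeneous AlphaScreen proximity assay pairing GST-Six1 with His-tagged Eya2 (added as 5X mix: 250 nM and 500 nM) in 50 mM Tris pH 8.0, 300 mM NaCl, 1 mM TCEP. Glutathione donor and nickel acceptor beads; 1 h, 37 °C, dark.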
TRPML1 agonist: qHTS for Agonists of the Human Mucolipin Transient Receptor Potential 1 (TRPML1) | TRPML1-expressing cells, Ca2+ dye fluorescence, FDSS; host cell line not named in the record; reference of the full effect not given here | activation, % (concentration not given with the values) | AID 624414, 2012 | 410,000 compounds, 0.12% hits; in the data active = activation above about 50%; inconclusive = about 30% to 50%; inactive = below about 30%; further: 0% is about no effect; the text of the record puts the active cut at 80%
Target sequence (Q9GZU1 whole entry, looked up): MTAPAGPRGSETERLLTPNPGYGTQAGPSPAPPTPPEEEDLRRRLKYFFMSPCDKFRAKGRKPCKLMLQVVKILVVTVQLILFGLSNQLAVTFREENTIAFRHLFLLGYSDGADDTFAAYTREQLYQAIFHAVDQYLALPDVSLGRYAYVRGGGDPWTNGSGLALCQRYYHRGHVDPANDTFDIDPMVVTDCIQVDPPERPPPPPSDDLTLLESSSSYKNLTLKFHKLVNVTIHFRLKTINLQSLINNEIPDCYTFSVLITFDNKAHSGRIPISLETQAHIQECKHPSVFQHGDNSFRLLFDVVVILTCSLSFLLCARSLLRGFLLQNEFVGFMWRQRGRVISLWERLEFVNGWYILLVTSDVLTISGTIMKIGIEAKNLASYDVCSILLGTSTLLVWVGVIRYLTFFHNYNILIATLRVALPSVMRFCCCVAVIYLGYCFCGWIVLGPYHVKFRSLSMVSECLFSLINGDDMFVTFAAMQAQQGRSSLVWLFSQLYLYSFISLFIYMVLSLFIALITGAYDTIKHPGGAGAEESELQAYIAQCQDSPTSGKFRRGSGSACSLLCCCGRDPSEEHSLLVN
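Tetracycline-induced TRPML1-DL cells are seeded and incubated overnight before loading with a no-wash Ca2+ dye and quencher. Agonist activity is taken from the 110 s fluorescence read following compound pin-transfer on an FDSS, before EC80 54-4 challenge.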
TRPML1 blocker: qHTS for Inhibitors of the Human Mucolipin Transient Receptor Potential 1 (TRPML1). 390,000 compounds, 0.02% hits. Mucolipin-1 (Homo sapiens), Q9GZU1. TRPML1-inducible cells, Ca2+ dye fluorescence, FDSS; hits give low values; inhibition of EC80 agonist-evoked calcium signal. activity change, negative = inhibition, % (no concentration beside the values); in the data active means activity change below about -50%; inconclusive means about -30% to -50%; inactive means above about -30%;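 further: stimulus is agonist 54-4 at its EC80 concentration; on the % scale 0 is the no-effect control and ±100 the full control effect; compound concentration not given in the record; the text of the record puts the active cut at -80%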
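Calcium fluorescence in TRPML1-DL cells induced overnight with Tet: a 110 s read after compound pin addition, then a 110 s antagonist read after challenge with 54-4 at 4 uM final (EC80).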
* hit, by the source's call.

`CC(C)NC(=O)C1CCCN(S(=O)(=O)c2cccs2)C1` (configuration not stated) gave TRPV1 potentiator 9, D2 potentiator -17, CtBP-E1A inh 4, Six1-Eya2 inh 3, TRPML1 agonist 0.6 and TRPML1 blocker -2.
For O=C(CCNC(=O)c1ccc(Br)cc1)Nc1cc(Cl)ccc1-n1cncn1 the results were TRPV1 potentiator 10, D2 potentiator -4, CtBP-E1A inh -9, Six1-Eya2 inh -8, TRPML1 agonist 0.6 and TRPML1 blocker 17.
`Cc1nc(S(=O)(=O)c2ccc(Cl)cc2)nc2c1CCC2` gave TRPV1 potentiator -4, D2 potentiator 3, CtBP-E1A inh 11, Six1-Eya2 inh 1, TRPML1 agonist 0.2 and TRPML1 blocker 3.
COc1ccc(C(CNC(=O)c2ccc(OCc3c(C)noc3C)cc2)N2CCCC2)cc1 (configuration not stated) was read as TRPV1 potentiator 2, D2 potentiator 0, CtBP-E1A inh 5, Six1-Eya2 inh -7, TRPML1 agonist 1.0 and TRPML1 blocker 4.
Screening CCCc1ccc(C(O)c2ncc(-c3ccccc3C)[nH]2)cc1 (configuration not stated) returned D2 potentiator -5, CtBP-E1A inh -8, Six1-Eya2 inh -14 and TRPML1 agonist -0.6.
Cc1cc(Nc2ccc(F)c(Cl)c2)n2ncnc2n1 was read as TRPV1 potentiator -5, D2 potentiator -4, CtBP-E1A inh -4, Six1-Eya2 inh 5, TRPML1 agonist 4.2 and TRPML1 blocker -20.
Screening Cc1c([N+](=O)[O-])c(C(=O)NC2CCCC2)nn1C returned TRPV1 potentiator -1, D2 potentiator -7, CtBP-E1A inh 6, Six1-Eya2 inh -6, TRPML1 agonist -0.4 and TRPML1 blocker 5.
O=C(Nc1cccc(C(F)(F)F)c1)c1c(O)c2ccccc2[nH]c1=O was read as TRPV1 potentiator -6, D2 potentiator -17, Six1-Eya2 inh 6, TRPML1 agonist 0.1 and TRPML1 blocker -19.
`Cc1ccc(F)cc1NC(=O)N1CCN(C2c3ccccc3-c3ccccc32)CC1` gave TRPV1 potentiator -8, D2 potentiator -17, Six1-Eya2 inh -3, TRPML1 agonist -0.1 and TRPML1 blocker 0.
`CCOC(=O)c1c(C)[nH]c(=S)c(C#N)c1-c1ccc(OC)cc1` gave TRPV1 potentiator -2, D2 potentiator -8, CtBP-E1A inh 7, Six1-Eya2 inh -2, TRPML1 agonist -0.8 and TRPML1 blocker 5.
CN(C)C(=O)c1snnc1-c1ccccc1 was read as TRPV1 potentiator -1, D2 potentiator -1, CtBP-E1A inh 7, Six1-Eya2 inh 9, TRPML1 agonist -0.1 and TRPML1 blocker -1.
Screening C=CCOc1ccc(/C=C2/C(=N)N3N=C(CC(=O)N4CCCC4)SC3=NC2=O)cc1OC returned TRPV1 potentiator -1, D2 potentiator -4, CtBP-E1A inh -13, Six1-Eya2 inh -5, TRPML1 agonist 0.2 and TRPML1 blocker -10.
For CCCCC(=O)NC(=S)NNC(=O)CC#N the results were TRPV1 potentiator 2, D2 potentiator 8, CtBP-E1A inh 4, Six1-Eya2 inh -1, TRPML1 agonist 0.4 and TRPML1 blocker 4.
Screening CCCCn1c(SCC2CCCCO2)nc2cc(S(N)(=O)=O)ccc21 (configuration not stated) returned TRPV1 potentiator -22, D2 potentiator -11, CtBP-E1A inh 3, Six1-Eya2 inh -1, TRPML1 agonist 2.0 and TRPML1 blocker -5.
Screening C/C(=N/N1CCN(c2ccccn2)CC1)c1cccc([N+](=O)[O-])c1 returned TRPV1 potentiator 0, D2 potentiator -1, CtBP-E1A inh -17, Six1-Eya2 inh 1, TRPML1 agonist -0.1 and TRPML1 blocker 10.
Screening O=[N+]([O-])c1ccc(/C=N/Nc2nc(NCc3ccccc3)nc(N3CCOCC3)n2)cc1 returned TRPV1 potentiator 0, D2 potentiator -9, Six1-Eya2 inh 1, TRPML1 agonist 1.8 and TRPML1 blocker 3.
Cc1ccc(C)c(N2C(=O)C3C4C=CC(CC4)C3C2=O)c1 (configuration not stated) was read as TRPV1 potentiator inconclusive, D2 potentiator -4, Six1-Eya2 inh 0, TRPML1 agonist -0.5 and TRPML1 blocker 3.
Cc1nc2ccccc2cc1OCc1ccccc1 was read as TRPV1 potentiator 7, D2 potentiator 6, CtBP-E1A inh 9, Six1-Eya2 inh 21, TRPML1 agonist 1.5 and TRPML1 blocker 49.
CC(=O)NCCc1ccc(C(=O)COC(=O)C2CCCCC2)cc1 was read as D2 potentiator -9, CtBP-E1A inh 3, Six1-Eya2 inh 3, TRPML1 agonist -0.3 and TRPML1 blocker -9.
Screening O=S(=O)(NC1=NCCCCCC1)c1cccs1 returned TRPV1 potentiator 23, D2 potentiator -10, CtBP-E1A inh -5, Six1-Eya2 inh 2, TRPML1 agonist 0.5 and TRPML1 blocker 11.
For CCNc1nc(OC)nc(Oc2ccc(=O)n(-c3ccccc3)n2)n1 the results were TRPV1 potentiator -23, D2 potentiator -7, CtBP-E1A inh 2, Six1-Eya2 inh -3, TRPML1 agonist 0.1 and TRPML1 blocker 34.
Screening CS(=O)(=O)N(CC(=O)Nc1ccc(C(N)=O)cc1)C1CCCCC1 returned TRPV1 potentiator 8, D2 potentiator -3, CtBP-E1A inh -21, Six1-Eya2 inh -13, TRPML1 agonist 0.7 and TRPML1 blocker 20.
`CNC(=O)C1CC(=O)N(Cc2ccc3c(c2)OCO3)C(=Nc2ccc(F)cc2)S1` (configuration not stated) gave TRPV1 potentiator 17, D2 potentiator -24, CtBP-E1A inh 10, Six1-Eya2 inh 0, TRPML1 agonist 0.6 and TRPML1 blocker 5.
`COc1ccc(C2=NS(=O)(=O)N(C)C(C(=O)Nc3cc(OC)c(OC)c(OC)c3)=C2)cc1` gave TRPV1 potentiator 6, D2 potentiator 6, CtBP-E1A inh -15, Six1-Eya2 inh -19, TRPML1 agonist 1.4 and TRPML1 blocker 36.
COc1ccccc1OCc1nnc(SCC(=O)NCc2ccco2)n1-c1ccccc1 was read as TRPV1 potentiator -1, D2 potentiator -8, CtBP-E1A inh -12, Six1-Eya2 inh -3, TRPML1 agonist 0.1 and TRPML1 blocker 14.
`O=C(CCCc1ccccc1)NC12CC3CC(CC(C3)C1)C2` gave TRPV1 potentiator -6, D2 potentiator -23 and Six1-Eya2 inh 16.
Screening CNC(=S)Nc1ccc2[nH]c(=O)[nH]c2c1 returned TRPV1 potentiator -5, D2 potentiator 1, CtBP-E1A inh 11, Six1-Eya2 inh 11, TRPML1 agonist -0.5 and TRPML1 blocker -11.
`NC(=O)c1ccc(NC(=O)COC(=O)c2cc([N+](=O)[O-])ccc2N2CCOCC2)cc1` gave TRPV1 potentiator 3, D2 potentiator -17, CtBP-E1A inh 2, Six1-Eya2 inh -6, TRPML1 agonist -0.2 and TRPML1 blocker 11.
Screening COc1ccc(/C=N/NC(=O)c2ccn[nH]2)cc1COc1ccc([N+](=O)[O-])c(C)c1 returned D2 potentiator 1, CtBP-E1A inh -5, Six1-Eya2 inh -6, TRPML1 agonist -0.8 and TRPML1 blocker 8.
Screening COc1ccccc1N1CCN(Cc2ccc(OC)c(OC)c2OC)CC1 returned TRPV1 potentiator -6, D2 potentiator -44, CtBP-E1A inh -9, Six1-Eya2 inh 0, TRPML1 agonist 0.7 and TRPML1 blocker -21.
For Cc1ccc(F)cc1-c1cc2nc(NCCCN(C)C)n(C)c(=O)c2s1 the results were D2 potentiator -17, CtBP-E1A inh -1, Six1-Eya2 inh -2 and TRPML1 agonist 0.2.
Screening CCO/C(C)=N/n1c2nc3ccccc3nc2c2c(=O)n(C3CCCC3)c(C)nc21 returned TRPV1 potentiator 6, D2 potentiator -4, CtBP-E1A inh 8, Six1-Eya2 inh 6, TRPML1 agonist -0.3 and TRPML1 blocker 1.
For CCOC(=O)N1CCN(C/C(Cl)=C/c2ccccc2)CC1 the results were TRPV1 potentiator -36, D2 potentiator 2, CtBP-E1A inh 3, Six1-Eya2 inh -7, TRPML1 agonist 1.6 and TRPML1 blocker 5.
Screening NCC1CCC(C(=O)Oc2ccc(CCC(=O)O)cc2)CC1 (configuration not stated) returned D2 potentiator -5, CtBP-E1A inh 1, Six1-Eya2 inh -1, TRPML1 agonist -0.3 and TRPML1 blocker -7.
`Cc1ccccc1C(=O)Nc1ccc2c(c1)C(=O)NC2=O` gave TRPV1 potentiator 14, D2 potentiator -1, CtBP-E1A inh 3, Six1-Eya2 inh 0, TRPML1 agonist -0.5 and TRPML1 blocker 5.
Screening O=C(Nc1cccc2ccccc12)N1CCN(c2ncccn2)CC1 returned TRPV1 potentiator 3, D2 potentiator 1, Six1-Eya2 inh 4, TRPML1 agonist -1.0 and TRPML1 blocker 0.
`O=C(CCN1C(=O)C2CCCCC2C1=O)NNC(=O)c1cccc(Cl)c1` (configuration not stated) gave TRPV1 potentiator 0, D2 potentiator -9, CtBP-E1A inh 6, Six1-Eya2 inh 1, TRPML1 agonist 0.2 and TRPML1 blocker -14.
Cc1ccc(CNCc2ccco2)cc1 was read as TRPV1 potentiator 0, D2 potentiator -34, Six1-Eya2 inh -3, TRPML1 agonist 0.0 and TRPML1 blocker -6.
Screening O=C(CNc1cccc(S(=O)(=O)N2CCCCC2)c1)Nc1cccc(F)c1 returned TRPV1 potentiator -14, D2 potentiator -8, CtBP-E1A inh -1, Six1-Eya2 inh -5, TRPML1 agonist -0.5 and TRPML1 blocker 5.
COc1ccc(CN(C)C(=O)c2ccc(OCC(=O)Nc3cccc(C(F)(F)F)c3)c(OC)c2)cc1 was read as D2 potentiator -11, CtBP-E1A inh 2, Six1-Eya2 inh 2, TRPML1 agonist 1.7 and TRPML1 blocker 1.
Screening COc1ccc(CN2CC(=O)N(c3ccc(C)c(C)c3)C2=S)cc1OC returned TRPV1 potentiator -6, D2 potentiator 6, CtBP-E1A inh -6, Six1-Eya2 inh -8, TRPML1 agonist 0.2 and TRPML1 blocker -1.

Arranged by formula weight (largest number first): some entries from above
Screening O=[N+]([O-])c1ccc(/C=N/Nc2nc(NCc3ccccc3)nc(N3CCOCC3)n2)cc1 returned TRPV1 potentiator 0, D2 potentiator -9, Six1-Eya2 inh 1, TRPML1 agonist 1.8 and TRPML1 blocker 3.
`CC(C)NC(=O)C1CCCN(S(=O)(=O)c2cccs2)C1` (configuration not stated) gave TRPV1 potentiator 9, D2 potentiator -17, CtBP-E1A inh 4, Six1-Eya2 inh 3, TRPML1 agonist 0.6 and TRPML1 blocker -2.
For CCOC(=O)N1CCN(C/C(Cl)=C/c2ccccc2)CC1 the results were TRPV1 potentiator -36, D2 potentiator 2, CtBP-E1A inh 3, Six1-Eya2 inh -7, TRPML1 agonist 1.6 and TRPML1 blocker 5.
Cc1ccc(C)c(N2C(=O)C3C4C=CC(CC4)C3C2=O)c1 (configuration not stated) was read as TRPV1 potentiator inconclusive, D2 potentiator -4, Six1-Eya2 inh 0, TRPML1 agonist -0.5 and TRPML1 blocker 3.
